ClpP mod – qHTS Assay for Activators of ClpP; ATP-dependent Clp protease proteolytic subunit (Bacillus subtilis (strain 168)), P80244; purified B. subtilis ClpP, FRET peptide cleavage, 20 min; Potency, µM (highest dose often 57.5 µM), for inactives: top-dose activity change, negative = active; hit rate 1.9% among 340,000; AID 651965, 2013; active = well fitted falling curve with a large enough effect; inconclusive = small, poorly fitted or top-dose-only effect; inactive = no such curve, though single readings can be large or run the other way; note: potency is the fitted concentration of half-maximal effect; the source files actives as falling curves though it sought activators and does not explain the sign; nearly all actives have a fitted effect of over 65% in size; many hits overshoot -100%
Target sequence (P80244 whole entry, looked up): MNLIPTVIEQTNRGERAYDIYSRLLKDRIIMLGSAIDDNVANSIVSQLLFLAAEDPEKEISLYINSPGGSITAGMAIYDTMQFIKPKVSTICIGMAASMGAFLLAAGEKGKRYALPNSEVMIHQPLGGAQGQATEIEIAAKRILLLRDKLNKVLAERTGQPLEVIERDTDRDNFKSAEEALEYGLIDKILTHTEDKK
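Purified B. subtilis ClpP, 10 microg/mL final in Tris/HCl pH8 with KCl, BSA, glycerol and Tween-20, cleaved an Abz/nitrotyrosine-quenched decapeptide. Fluorescence (ex 320, em 430) was read at 0 and 20 min at room temperature. Delta was normalized to 5.8 microM ADEP and DMSO/no-enzyme controls.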
Menin-MLL FL inh – inhibitors of human menin-MLL interaction, wild-type MLL peptide. Fluorescence polarization, fluorescein-MLL peptide displacement from menin. FP activity change, % at 61.4 µM. 290,000 tested, under 10 active; inconclusive = falling polarisation curve, or a change in total fluorescence; inactive = total fluorescence flat and polarisation flat or rising; no compound was filed as active; the % refers to the polarisation; negative = inhibition;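 note: % of control where 0% means no effect; inhibitors lower the polarisation; unlabelled MLL peptide was the positive control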
Sfp inh – blocks B. subtilis Sfp PPTase activity; Q9F4F7; Biochemical Sfp PPTase activity, qHTS; Potency, µM, for inactives: max response, negative = inhibition, hits mostly inhibitors; hit rate 3.5% among 310,000; AID 1490; active = well fitted inhibition curve with a large enough effect; inconclusive = small, poorly fitted or top-dose-only effect, or another doubt; inactive = no such curve, though single readings can be large or run the other way;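 note: the enzyme is Sfp with the accession as filed and its product quenches rhodamine fluorescence; potency is the fitted concentration of half-maximal effect; 0% = enzyme reaction without inhibitor and -100% = no enzyme wells; top concentration of the series not given in the record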
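Fluorescence-quenching assay: 15 nM Sfp-PPTase preincubated 15 min at room temperature with compound, then 5 uM rhodamine-CoA and 12.5 uM BHQ-2-labelled YbbR peptide added. Fluorescence (ex 525/em 598 nm) read at start and after 30 min; difference gives rate.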
TRPV1 potentiator – potentiators of human vanilloid receptor 1 (TRPV1); Q8NER1; TRPV1-expressing cells, Fluo-8 calcium influx, capsaicin EC20 potentiation; host cell line not named in the record; control for the full effect not named in the record; potentiation, % at 8.33 µM; hit rate 0.02% among 320,000; AID 540277; active means potentiation above 80%; inconclusive means 30% to 80%; inactive means below 30%; note: 0% is about no effect
Target sequence (Q8NER1 whole entry, looked up): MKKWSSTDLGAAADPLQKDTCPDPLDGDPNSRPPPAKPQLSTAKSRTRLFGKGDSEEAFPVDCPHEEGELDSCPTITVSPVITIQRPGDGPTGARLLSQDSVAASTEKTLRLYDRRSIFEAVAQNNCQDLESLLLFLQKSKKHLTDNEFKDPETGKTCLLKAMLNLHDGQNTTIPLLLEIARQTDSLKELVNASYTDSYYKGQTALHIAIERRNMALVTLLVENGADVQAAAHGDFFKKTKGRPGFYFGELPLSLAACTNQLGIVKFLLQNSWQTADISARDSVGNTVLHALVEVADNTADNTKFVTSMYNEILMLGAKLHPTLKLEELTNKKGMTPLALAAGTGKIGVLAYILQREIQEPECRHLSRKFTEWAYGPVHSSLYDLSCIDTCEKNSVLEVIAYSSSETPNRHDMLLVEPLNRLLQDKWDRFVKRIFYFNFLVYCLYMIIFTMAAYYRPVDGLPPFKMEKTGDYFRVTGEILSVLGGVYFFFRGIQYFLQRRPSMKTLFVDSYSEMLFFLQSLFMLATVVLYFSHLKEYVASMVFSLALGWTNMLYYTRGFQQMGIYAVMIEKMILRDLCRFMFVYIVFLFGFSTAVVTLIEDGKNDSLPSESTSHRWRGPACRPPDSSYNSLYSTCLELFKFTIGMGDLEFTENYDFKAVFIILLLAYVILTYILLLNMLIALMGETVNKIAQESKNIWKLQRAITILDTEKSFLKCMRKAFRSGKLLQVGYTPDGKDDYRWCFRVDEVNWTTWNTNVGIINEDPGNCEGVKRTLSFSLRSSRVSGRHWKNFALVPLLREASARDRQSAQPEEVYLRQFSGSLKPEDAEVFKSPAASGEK
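Cells expressing TRPV1 were dye-loaded with Fluo-8 and read kinetically: 10 s baseline, 3 min after compound (agonist portion), then 2 min after EC20 capsaicin (allosteric enhancer portion). Calcium-bound dye fluorescence at 480/520 nm.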
D2 potentiator – potentiates the human D2 dopamine receptor allosterically; P14416; DiscoveRx D2 beta-arrestin cells, luminescence, 90 min; 100% = 57 uM dopamine signal; potentiation, % (concentration not given with the values); hit rate 0.23% among 360,000; active = potentiation of 50% or more; inconclusive = 30% to 50%; inactive = 30% or less;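 note: compound concentration not given in the record; tested on top of an EC20 dose of dopamine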
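PathHunter beta-arrestin assay in DiscoveRx D2 cells. Compounds were added with an EC20 of dopamine (50 nM final) for 90 min at 37 deg C. Luminescence was read 1 h after detection reagent, with 57 uM dopamine as the EC100 control.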
gsp agonist – agonists of gsp mutant (McCune-Albright syndrome); gsp mutant cells, cAMP HTRF, 30 min; control for the full effect not named in the record; Potency, µM (top dose mostly 76.9 µM), inactives show at the top dose activation (cAMP increase), actives largely listed as activators; hit rate 0.13% among 340,000; AID 624287; active = well fitted activation curve with a large enough effect; inconclusive = small, poorly fitted or top-dose-only effect, or another doubt; inactive = no such curve, though single readings can be large or run the other way; cell line not stated here;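 note: phosphodiesterase inhibitor Ro 20-1724 added with compounds to block cAMP breakdown; potency is the fitted concentration of half-maximal effect; nearly all actives have a fitted effect of over 60% in size; about a fifth of the inactives were tested at one dose only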
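Cells in DMEM/10% FBS with G418 were pretreated with compounds in DMSO plus […] (300 uM stock) for 30 min at 37C. cAMP was measured by HTRF (cAMP-d2 plus anti-cAMP antibody-K) after 30 min at room temperature.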
gsp antag – antagonizes gsp, the McCune-Albright syndrome mutation; AID 624288; Potency, µM (top dose mostly 76.9 µM), without a hit: at the highest dose activity change, negative = inhibition, usual class: inhibitors; gsp-mutant cells, cAMP HTRF, 30 min; control for the full effect not named in the record; hit rate 0.4% among 340,000; active = falling curve of any shape with a large fitted effect; inconclusive = falling curve, mostly with a smaller effect; inactive = flat or rising curve; cell line not stated here;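 note: intracellular cAMP measured with PDE inhibitor Ro 20-1724 present during compound exposure; potency is the fitted concentration of half-maximal effect; % is set by controls: 0 for no effect and ±100 for the full control effect; nearly all actives have a fitted effect of over 65% in size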
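HTRF cAMP measurement after 30 min RT detection following 30 min, 37C compound treatment alongside […] (added as 300 uM solution) in G418-selected cells seeded at 2000/well and grown 16–24 h.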
* hit, by the source's call; ? = inconclusive; / = no result given; & = joins results of further samples; ! = repeats disagree; [ ] = remark or other dose. An excerpt; rates above refer to the full screens.

SMILES | ClpP mod | Menin-MLL FL inh | Sfp inh | TRPV1 potentiator | D2 potentiator | gsp agonist | gsp antag
COc1ccc(Nc2nc(N3CCN(C)CC3)nc3ccccc23)c(OC)c1 | -0.3% | 3.2 | -6% | 2 | 12 | -22% | 8%
Cc1nc2c(-c3ccc(F)cc3)c(C)nn2c(C)c1CCC(=O)N1CCC2(CC1)OCCO2 | 0.0% | 4.8 | 1% | ? | -2 | -1% | 3%
CC(=O)Nc1cc(C(=O)N2CCC3(CC2)OCCO3)ccc1Sc1ccc(C)cc1 | -0.5% | -0.4 | 13% | 10 | 4 | -3% | 0%
CCN1CCN(c2cn[nH]c(=O)c2Cl)CC1 | / | -4.1 | 22% | -5 | -14 | 7%[15.4 µM] | 8%
CCOC(=O)c1c(C)n(Cc2ccco2)c2ccc(O)cc12 | -13% | 5.1 | 45µM* | 4 | -6 | -40%[inhibitor] | 2%
COc1ccc(C(Nc2cccc([N+](=O)[O-])c2)P(=O)(OC(C)C)OC(C)C)cc1 (centres undefined) | -0.3% | 11 | 5% | -3 | -10 | -43%[inhibitor] | -12%
Oc1ccc(C2NCc3ccccc3-n3cccc32)cc1Cl (centres undefined) | -2.6% | 0.1&2.4 | -13%&-1% | 1 | -10&-4 | -17%&-6% | 10%&4%
Cc1c(C)c2ccc(OCC(=O)N3CCN(Cc4ccccc4)CC3)cc2oc1=O | -2.1% | / | / | / | -3 | -2% | 16%
O=C(C1CCC(=O)N1C1CCCCC1)N1CCC2(CC1)OCCO2 (centres undefined) | 2.0% | 0.4 | 2% | -19 | -6 | -17% | 6%
CCC1(CC(C)c2ccccc2)C(=O)NC(=O)NC1=O (centres undefined) | / | / | / | / | -1 | ? | 7%
C=CCc1cccc(C=Nc2c[nH]c(=O)[nH]c2=O)c1O | / | -0.6 | 11% | 1 | -1 | ? | 0%
COC(=O)C1=C(c2ccccc2)C[C@@H]2CC[C@H]1N2C(=O)NC(C)C | 1.3% | / | / | / | -7 | 13% | 6%
CCCCCn1c(NC(=O)c2ccco2)c(C(=O)OCC)c2nc3ccccc3nc21 | / | ? | ? | -2 | -32 | ? | 4%
CC1([N+](=O)[O-])COP(=O)(Nc2cccc(F)c2)OC1 (centres undefined) | -1.9% | / | / | / | -15 | 7% | 0%
CC1(C)CN=C(Nc2ccc(F)c(Cl)c2)S1 | 0.2% | 5.1 | 9% | -29 | -21 | 5% | 6%
CCCCn1c(C)c(C(=O)OCC)c2c(CN3CCCC3)c(O)ccc21 | -1.9% | 3.3 | -6% | -14 | -10 | 11% | 14%
Cc1ccc(N2CCN(CCc3ccccc3)CC2)cc1 | -0.7% | 1.2 | -1% | 7 | -17 | 20% | 6%
NCCc1ccc(OCc2ccccc2)c(OCc2ccccc2)c1 | 1.0% | / | / | -3 | -37 | -52%[inhibitor] | 22%
O=c1c2ccccc2nc(-c2ccco2)n1-c1ccccn1 | -7.4% | -0.5 | 11% | -4 | -33 | -16% | -3%
Cc1cc(O)c(CN2CCN(c3ccccc3)CC2)cc1C | -0.4% | -1.8 | 15% | -11 | -31 | -27% | 0%
COc1ccc(C2SCC(=O)Nc3c2c(=O)[nH]n3C2CCCCCC2)cc1 (centres undefined) | 1.9% | 5.5 | -13% | 13 | -1 | -34% | -4%
CCOC(=O)C1=C(C)N(C)C2(C)CC1c1ccccc1O2 (centres undefined) | -3.2% | 2.3 | -1% | 13 | -25 | -3% | -18%
COc1ccc(Cl)cc1C(=O)C1CCCN(Cc2cnc(C)s2)C1 (centres undefined) | / | 0.4 | 13% | -8 | -12 | -4%[15.4 µM] | -13%
CC(C)(C)n1c(O)c(C=Nc2ccc3c(c2)CCC3)c(=O)[nH]c1=O | -4.6% | 4.6 | 17% | -21 | 2 | -31%[inhibitor] | 15%
NC(=O)OCCCc1ccccc1 | -0.6% | -2.6 | -10% | / | -5 | / | 1%
CCOP(=S)(OCC)Oc1cc(C)nc(C(C)C)n1 | 2.3% | -4.3 | -28% | / | 5 | / | -10%
N#Cc1c(/N=C/c2ccc(O)cc2O)sc2c1C1CCN2CC1 | 1.6% | ? | 4% | -1 | -39 | -5% | -4%
Cc1cccc(OP(=O)(Oc2ccccc2)OC(c2ccccc2)C(F)(F)F)c1 (centres undefined) | 3.9% | 3.0 | -15% | 5 | -36 | -4% | -2%
Cc1sc2nc(COC(=O)Cc3ccccc3)[nH]c(=O)c2c1C | -2.0% | 2.2 | -7% | -5 | -12 | -28% | 10%
O=C1NC(=O)N(CCC2=CCCCC2)C(=O)/C1=C/c1ccc(O)cc1 | 1.4% | 6.9 | 45µM* | -9 | -8 | -8% | -4%
Cc1cccc(C(=O)NC2CC3CCCC(C2)N3Cc2ccccc2)c1 (centres undefined) | / | -0.6 | 8% | 11 | -10 | -47%[inhibitor] | 6%
O=C(Cc1ccccc1[N+](=O)[O-])N1CCN(Cc2ccc3c(c2)OCO3)CC1 | / | -1.6 | 16% | -6 | -7 | 13% | 9%
COc1ccc(Cc2c(O)[nH]c(=O)[nH]c2=O)c(OC)c1 | / | -0.6 | 20% | -10 | 2 | 2%[15.4 µM] | 6%
Cn1c(C(=O)N2CCC3(CC2)OCCO3)cc2c(=O)n(C)c3ccccc3c21 | -14% | 0.3 | 8% | 10 | -6 | ? | 2%
COc1ccc(OC(=O)N(C)C[C@H]2OCc3cnnn3CCCC(=O)N([C@@H](C)CO)C[C@H]2C)cc1 | -1.0% | / | / | / | -3 | ? | /
Cc1ccc(-n2c(O)c(/C=N/N3CCOCC3)c(=O)[nH]c2=S)cc1 | -8.1% | ? | ? | -2 | -12 | -11% | 3%
COC(=O)C1=C(c2ccc(OC(F)(F)F)cc2)C[C@@H]2CC[C@H]1N2C(=O)N1CCC(C)CC1 | -0.2% | / | / | -13 | -21 | / | -14%
CCc1ccccc1NC(=O)CNCc1ccccc1 | / | 1.8 | 18% | -21 | -10 | -2% | 6%
Cc1ccc(CN2C(=O)NC(=O)C3(Cc4c(nc5ccccn5c4=O)N4CCCCCC43)C2=O)cc1 (centres undefined) | -22% | -1.7 | -10% | -15 | -6 | 13% | -20%
CCN(CC)C(=O)c1ccc(NC(=O)CNC(C)c2cccc3ccccc23)cc1 (centres undefined) | / | -2.3 | -8% | -4 | -4 | 2% | -2%
Cn1c(O)c(C(=Nc2ccc(F)cc2)c2ccccc2)c(=O)n(C)c1=O | / | 0.7 | -6% | 12 | -7 | -18%[15.4 µM] | 3%
COc1cc2cc(C(=O)N3CC(COS(C)(=O)=O)c4ccc(O)cc43)[nH]c2c(OC)c1OC (centres undefined) | 2.3% | / | / | / | 5 | 33% | 24%
COc1ccc(C#Cc2ccc3c(c2)O[C@H](CN(C)C(C)=O)[C@H](C)CN([C@@H](C)CO)S3(=O)=O)cc1 | 3.8% | / | / | / | -9 | -44%[inhibitor] | /
CCCCc1ncc(CN2CCCC(C(=O)c3ccc(SC)cc3)C2)[nH]1 (centres undefined) | / | -4.9 | 0% | 8 | -3 | 9%[15.4 µM] | -6%
COc1ccc2[nH]c(C)c(CCNCc3cccnc3)c2c1 | -7.1% | / | / | 5 | -2 | 9% | -4%
Cc1ccc2nsnc2c1NS(=O)(=O)c1c(C)ccc2nsnc12 | -0.4% | 11 | -9% | 10 | 6 | -25% | -13%
O=C(c1c[nH]c2ccc(S(=O)(=O)N3CCOCC3)cc2c1=O)N1CCC2(CC1)OCCO2 | / | 0.2 | 8% | 2 | -2 | 43% | 4%
COc1ccc(C=C2C(=O)NC(=S)NC2=O)cc1OC | / | / | / | / | -10 | -18% | 9%
COc1ccc(CCn2c(O)c(/C=N/N3CCCCC3)c(=O)[nH]c2=O)cc1OC | 1.2% | -0.1 | 7% | -2 | -12 | -43%[inhibitor] | -3%
Cc1nc2ccsc2c(=O)n1-c1ccccc1Cl | / | / | / | / | -6 | 5%[15.4 µM] | 10%

Additional compounds follow:
SMILES | ClpP mod | Menin-MLL FL inh | Sfp inh | TRPV1 potentiator | D2 potentiator | gsp agonist | gsp antag
Cc1ccc(CSc2n[nH]c(N)n2)cc1 | -2.2% | 3.4 | 4% | 2 | -6 | -8% | 4%
CCCNC(=O)NC(=O)COc1ccc(-c2ccc(C#N)cc2)cc1 | ? | -1.7 | 5% | 4 | -11 | 9% | -11%
Cc1ccc(-c2cc(C(F)F)n3ncc(C(=O)N4CCc5ccccc5C4)c3n2)cc1 | ? | 0.4 | 4% | -4 | -10 | 16% | ?
COc1cc2c(cc1C=O)OCO2 | -1.1% | 6.7 | 13% | ? | 1 | 2%[15.4 µM] | 9%
c1ccc2ccccc2c1 | -1.1% | -0.1 | ? | -2 | -1 | / | 5%
COc1ccc(NC(=O)c2cn(CCC#N)nc2-c2ccccc2)cc1 | -2.0% | -2.6 | 22% | 13 | -27 | 5% | -2%
COc1cc(OC)c2c(c1)OCC1CON(C)C21 (centres undefined) | -3.5% | -2.5 | 13% | 9 | -9 | 3%[15.4 µM] | 2%
CN1C(=O)C(=Cc2ccc(N3CCCCCC3)cc2)C(=O)N(C)C1=O | / | ? | ? | -3 | -8 | -2%[15.4 µM] | 35µM*
N=C1c2ccccc2CN1NC(=O)c1ccc(Cl)cc1 | 0.0% | -1.5 | 1% | ? | -25 | -40%[inhibitor] | 7%
COC(=O)C1=C(c2ccc(F)cc2OCc2ccccc2)C[C@@H]2CC[C@H]1N2C(=O)NCc1ccc2c(c1)OCO2 | -2.6% | / | / | 5 | -6 | ? | -11%
CC(=NCc1cccnc1)c1c(O)n(-c2ccc(Cl)cc2)c(=O)[nH]c1=O | / | 1.1 | 15% | / | -1 | 2%[15.4 µM] | -5%
CN(C)C(=S)SSC(=S)N(C)C | 1.4% | 5.4&2.3&0.9 | 3.5µM*! | -15 | -34 | / | -2%
Cc1c(N=Cc2c(O)n(CCc3ccccc3)c(=O)[nH]c2=O)c(=O)n(-c2ccccc2)n1C | -0.5% | 6.4 | 5% | 15 | -4 | 8% | 1%
CN(Cc1ccccc1)C1CCCN(C(=O)COc2ccccc2Cl)C1 (centres undefined) | 0.8% | / | 3% | -12 | -31 | -76%[inhibitor] | 3%
COC(=O)C1=C(c2cc3ccccc3o2)C[C@@H]2CC[C@H]1N2C(=O)NC(C)C | -0.7% | / | / | / | -9 | 24% | -12%

Compound activity (PubChem BioAssay)
